Vaccinia Venus = inhibitors of vaccinia virus (Venus reporter) | 330,000 tested, 0.46% active | Vaccinia virus Venus reporter expression, fluorescence | AID 720580 | Potency, µM (highest dose often 36.5 µM), for inactives: at the highest dose activity change, negative = inhibition, usual class: inhibitors; active means well fitted inhibition curve with a large enough effect; inconclusive means small, poorly fitted or top-dose-only effect; inactive means no such curve, though single readings can be large or run the other way; tested in A549 cells; further: nearly all actives have a fitted effect of over 30% in size; inactives centre near -10
VACV mCherry inh = inhibitors of vaccinia virus infection (mCherry reporter signal) | Vaccinia virus mCherry reporter infection, fluorescence; about a quarter of the inactives have no number | Potency, µM (top dose mostly 36.5 µM), without a hit: top-dose activity change, negative = inhibition, usual class: inhibitors | 310,000 tested, 0.63% active; active = well fitted inhibition curve with a large enough effect; inconclusive = small, poorly fitted or top-dose-only effect; inactive = no such curve, though single readings can be large or run the other way; tested in A549 cells; further: nearly all actives have a fitted effect of over 35% in size; inactives centre near -10
Active calls of the source: *. On the % scale 0 is the no-effect control and ±100 the full control effect; potency means the concentration at half of the fitted maximal effect.

Sample of the layout, 18 compounds:
What do the screens show for `CCNC(C(=O)c1c[nH]c2c(CC)cccc12)c1ccccc1` (configuration not stated)?
Vaccinia Venus: -14%; VACV mCherry inh: -13%

What do the screens show for `Cc1cc(F)ccc1NC(=O)c1cc(S(=O)(=O)N2CCCC2)cn1C`?
Vaccinia Venus: -1%; VACV mCherry inh: 29%

How did O=C(NCCCNC(=O)c1ccccn1)c1ccccn1 do in these assays?
Vaccinia Venus: -2%; VACV mCherry inh: inactive

What do the screens show for `CN(C(=O)COC(=O)c1ccc2c(c1)OCO2)C1CCS(=O)(=O)C1` (configuration not stated)?
Vaccinia Venus: -3%

What do the screens show for `Cn1c(-c2cccc(Br)c2)cnc1NCc1ccccc1O`?
Vaccinia Venus: -15%; VACV mCherry inh: inconclusive

How did CC(=O)C1=C(C)NC(SCSc2ccccc2)=C(C#N)C1c1cccnc1 (configuration not stated) do in these assays?
Vaccinia Venus: -12%; VACV mCherry inh: inactive

What do the screens show for `O=c1c2ccccc2n2c(-c3ccc(C(F)(F)F)cc3)nnc2n1Cc1ccccc1`?
Vaccinia Venus: -8%; VACV mCherry inh: -21%

What do the screens show for `Cc1ccc(CN2CCN(C3CSCCSC3)CC2CCO)cc1` (configuration not stated)?
Vaccinia Venus: -1%; VACV mCherry inh: -8%

What do the screens show for `Cc1onc(-c2ccccc2)c1C(=O)NCC1CCN(C(=O)c2c(-c3ccccc3)noc2C)CC1`?
Vaccinia Venus: 7%; VACV mCherry inh: 4%

How did COc1ccc(CN2CCN(Cc3ccc(C)cc3)CC2)c(OC)c1 do in these assays?
Vaccinia Venus: 4%; VACV mCherry inh: -8%

How did Cc1cc(C)c2nccc(/C=C/c3ccc(N(C)C)cc3)c2c1 do in these assays?
Vaccinia Venus: -10%; VACV mCherry inh: -22%

Results for CCCCNC(=O)C1C(c2ccc(C(F)(F)F)cc2)=Nc2ccccc2N1C(C)=O (configuration not stated) ?
Vaccinia Venus: -28%; VACV mCherry inh: inconclusive

What do the screens show for `O=C(Nc1ccsc1C(=O)N1CCCC1)c1ccccc1`?
Vaccinia Venus: -14%; VACV mCherry inh: inactive

How did Cc1cc(=O)n2[nH]c(-c3ccc(F)cc3)nc2n1 do in these assays?
Vaccinia Venus: 4%; VACV mCherry inh: -13%

Results for CCCOc1ccccc1C(=O)Nc1ccc(-c2nc3ccc(C)cc3s2)cc1 ?
Vaccinia Venus: 4%; VACV mCherry inh: -10%

What do the screens show for `Cc1cc(C)n(-c2ccc(Cl)c(C(=O)Nc3ccc(-c4nnc5n4CCCCC5)cc3)n2)n1`?
Vaccinia Venus: -8%; VACV mCherry inh: 0%

What do the screens show for `CCCCN(CC)C(=O)Cn1ncc2c1-c1cc(C)ccc1OC2`?
Vaccinia Venus: -4%; VACV mCherry inh: -20%

How did O=C(Nc1ccc(F)c(F)c1)C1=COCCO1 do in these assays?
Vaccinia Venus: -15%; VACV mCherry inh: -14%

This part in full, repeating the preview:
What do the screens show for `CCNC(C(=O)c1c[nH]c2c(CC)cccc12)c1ccccc1` (configuration not stated)?
Vaccinia Venus: -14%; VACV mCherry inh: -13%

What do the screens show for `Cc1cc(F)ccc1NC(=O)c1cc(S(=O)(=O)N2CCCC2)cn1C`?
Vaccinia Venus: -1%; VACV mCherry inh: 29%

How did O=C(NCCCNC(=O)c1ccccn1)c1ccccn1 do in these assays?
Vaccinia Venus: -2%; VACV mCherry inh: inactive

What do the screens show for `CN(C(=O)COC(=O)c1ccc2c(c1)OCO2)C1CCS(=O)(=O)C1` (configuration not stated)?
Vaccinia Venus: -3%

What do the screens show for `Cn1c(-c2cccc(Br)c2)cnc1NCc1ccccc1O`?
Vaccinia Venus: -15%; VACV mCherry inh: inconclusive

How did CC(=O)C1=C(C)NC(SCSc2ccccc2)=C(C#N)C1c1cccnc1 (configuration not stated) do in these assays?
Vaccinia Venus: -12%; VACV mCherry inh: inactive

What do the screens show for `O=c1c2ccccc2n2c(-c3ccc(C(F)(F)F)cc3)nnc2n1Cc1ccccc1`?
Vaccinia Venus: -8%; VACV mCherry inh: -21%

What do the screens show for `Cc1ccc(CN2CCN(C3CSCCSC3)CC2CCO)cc1` (configuration not stated)?
Vaccinia Venus: -1%; VACV mCherry inh: -8%

What do the screens show for `Cc1onc(-c2ccccc2)c1C(=O)NCC1CCN(C(=O)c2c(-c3ccccc3)noc2C)CC1`?
Vaccinia Venus: 7%; VACV mCherry inh: 4%

How did COc1ccc(CN2CCN(Cc3ccc(C)cc3)CC2)c(OC)c1 do in these assays?
Vaccinia Venus: 4%; VACV mCherry inh: -8%

How did Cc1cc(C)c2nccc(/C=C/c3ccc(N(C)C)cc3)c2c1 do in these assays?
Vaccinia Venus: -10%; VACV mCherry inh: -22%

Results for CCCCNC(=O)C1C(c2ccc(C(F)(F)F)cc2)=Nc2ccccc2N1C(C)=O (configuration not stated) ?
Vaccinia Venus: -28%; VACV mCherry inh: inconclusive

What do the screens show for `O=C(Nc1ccsc1C(=O)N1CCCC1)c1ccccc1`?
Vaccinia Venus: -14%; VACV mCherry inh: inactive

How did Cc1cc(=O)n2[nH]c(-c3ccc(F)cc3)nc2n1 do in these assays?
Vaccinia Venus: 4%; VACV mCherry inh: -13%

Results for CCCOc1ccccc1C(=O)Nc1ccc(-c2nc3ccc(C)cc3s2)cc1 ?
Vaccinia Venus: 4%; VACV mCherry inh: -10%

What do the screens show for `Cc1cc(C)n(-c2ccc(Cl)c(C(=O)Nc3ccc(-c4nnc5n4CCCCC5)cc3)n2)n1`?
Vaccinia Venus: -8%; VACV mCherry inh: 0%

What do the screens show for `CCCCN(CC)C(=O)Cn1ncc2c1-c1cc(C)ccc1OC2`?
Vaccinia Venus: -4%; VACV mCherry inh: -20%

How did O=C(Nc1ccc(F)c(F)c1)C1=COCCO1 do in these assays?
Vaccinia Venus: -15%; VACV mCherry inh: -14%

Results for CC1CCC(NC(=O)CCc2cn(Cc3ccccc3Cl)c3ccccc23)CC1 (configuration not stated) ?
Vaccinia Venus: -25%; VACV mCherry inh: -19%

How did O=C(CN1C(=O)NC(c2ccccc2)(c2ccccc2)C1=O)Nc1ccc(N2CCOCC2)cc1 do in these assays?
Vaccinia Venus: -8%; VACV mCherry inh: -22%

What do the screens show for `COC(=O)[C@@H]1N=C(c2ccc(OC)cc2)O[C@]12C(=O)N(C)c1ccc(Cl)cc12`?
Vaccinia Venus: -1%; VACV mCherry inh: -6%

What do the screens show for `COc1cc(C(=O)OC(C)C(=O)Nc2ccc3c(c2)OCCO3)cc(OC)c1OC` (configuration not stated)?
Vaccinia Venus: -29%; VACV mCherry inh: -18%

What do the screens show for `CCOC(=O)N1CCC(N2Cc3cccc(C(=O)Nc4c(C)cccc4CC)c3C2=O)CC1`?
Vaccinia Venus: -14%; VACV mCherry inh: -4%

What do the screens show for `CC1=C(C(=O)N(C)C)CC(CC(=O)NC(c2ccccc2)c2ccccc2)C(=O)N1Cc1ccccc1` (configuration not stated)?
Vaccinia Venus: -18%; VACV mCherry inh: -6%

What do the screens show for `COc1ccc(NC(=O)NNC(=O)C(C)Oc2ccc3ccccc3c2)cc1` (configuration not stated)?
Vaccinia Venus: inconclusive; VACV mCherry inh: inconclusive

What do the screens show for `Cc1cccc2c1-c1sc(C(=O)N3CCCCC3)cc1CO2`?
Vaccinia Venus: -14%; VACV mCherry inh: -14%

Results for COCCCNC(=O)C1CCCN(S(=O)(=O)c2ccc(C)cc2)C1 (configuration not stated) ?
Vaccinia Venus: -11%; VACV mCherry inh: -2%

How did CCN(CC)C1CCS(=O)(=O)C1 (configuration not stated) do in these assays?
Vaccinia Venus: -16%; VACV mCherry inh: -2%

How did CCc1sc(C(=O)NCCc2ccc(S(N)(=O)=O)cc2)cc1C do in these assays?
Vaccinia Venus: -14%; VACV mCherry inh: -12%

Results for O=C(Nc1cc(S(=O)(=O)N2CCOCC2)ccc1N1CCCC1)c1cc(F)c(F)cc1Cl ?
Vaccinia Venus: -15%; VACV mCherry inh: 18%

What do the screens show for `CCOC(=O)C1(CCCc2ccccc2)CCN(Cc2ccn[nH]2)CC1`?
Vaccinia Venus: -18%; VACV mCherry inh: -2%

Results for O=C(NCCCCC(NC(=O)C1CCCCC1)C(=O)O)c1ccccc1 (configuration not stated) ?
Vaccinia Venus: 0%; VACV mCherry inh: inactive

What do the screens show for `NN(CCO)C(=S)Nc1ccc(Cl)cc1`?
Vaccinia Venus: inconclusive; VACV mCherry inh: 10µM*

Results for CC(C(=O)Nc1ccon1)N1C(=O)c2ccccc2S1(=O)=O (configuration not stated) ?
Vaccinia Venus: -6%; VACV mCherry inh: inactive

How did Cc1ccc(NCc2cccn2-c2nnc(N3CCC(C(=O)NCCc4ccc(Cl)cc4)CC3)s2)cc1 do in these assays?
Vaccinia Venus: inconclusive; VACV mCherry inh: inconclusive

Results for CCOc1ccc(/C=N/NC(=O)C(C)N(c2ccc(OC)cc2)S(C)(=O)=O)cc1OCC (configuration not stated) ?
Vaccinia Venus: -8%; VACV mCherry inh: 5%

How did CCc1ccc2occ(CC(=O)N(Cc3ccc(N(C)C)cc3)C3CCS(=O)(=O)C3)c2c1 (configuration not stated) do in these assays?
Vaccinia Venus: -6%; VACV mCherry inh: 1%

What do the screens show for `O=C(CC(SCc1ccco1)c1ccc(O)cc1)c1cccs1` (configuration not stated)?
Vaccinia Venus: -18%

What do the screens show for `CCCc1nn(C)c(C(=O)Nc2cccc(C)c2)c1Cl`?
Vaccinia Venus: -17%; VACV mCherry inh: -14%

How did Cc1ccc(N2C(=O)CC(Sc3ccccc3C(=O)O)C2=O)cc1 (configuration not stated) do in these assays?
Vaccinia Venus: -5%; VACV mCherry inh: -15%

What do the screens show for `CSc1ncccc1C(=O)OCC(=O)Nc1ccc(N2CCOCC2)cc1`?
Vaccinia Venus: -2%; VACV mCherry inh: -2%

What do the screens show for `COc1ccccc1CCC(=O)OCC(=O)Nc1ccc(C(N)=O)cc1`?
Vaccinia Venus: 0%; VACV mCherry inh: 8%

How did CCOC(=O)c1ccccc1NC(=O)c1cncc(Br)c1 do in these assays?
Vaccinia Venus: -3%; VACV mCherry inh: -15%

Results for CCCCn1c(N)c(N(CCOC)C(=O)c2ccc(Br)s2)c(=O)[nH]c1=O ?
Vaccinia Venus: 18%; VACV mCherry inh: -8%

Results for CCOc1ccc(C(=O)NC(=S)N2CCN(c3ccc(C(F)(F)F)cc3[N+](=O)[O-])CC2)cc1 ?
Vaccinia Venus: -11%; VACV mCherry inh: -14%

Results for CCOc1ccccc1OCCOc1ccccc1OC(C)C ?
Vaccinia Venus: -15%

What do the screens show for `CC(=O)/C(=C/N(C)C)C(=O)Nc1ccc(Cl)cc1Cl`?
Vaccinia Venus: -7%; VACV mCherry inh: inactive

Results for CN(C)S(=O)(=O)c1cc(NC(=O)COC(=O)C2COc3ccccc3O2)ccc1Cl (configuration not stated) ?
Vaccinia Venus: -9%; VACV mCherry inh: inactive

Results for CCOc1ccccc1C1CC(c2ccc(F)cc2)Nc2nc(N)nn21 (configuration not stated) ?
Vaccinia Venus: -7%; VACV mCherry inh: -11%

What do the screens show for `Cc1ccc(C(=O)NCCn2cc(SCC(=O)N3CCOCC3)c3ccccc32)cc1`?
Vaccinia Venus: -28%; VACV mCherry inh: -3%

What do the screens show for `Cc1ccc2cc3cc(C(=O)NCc4ccco4)oc3nc2c1`?
Vaccinia Venus: -24%; VACV mCherry inh: inconclusive

What do the screens show for `CC1(Cc2ccc(F)cc2)C(=O)Nc2ccc(S(=O)(=O)NC3CCCCC3)cc21` (configuration not stated)?
Vaccinia Venus: -16%; VACV mCherry inh: -10%

What do the screens show for `CCOc1ccccc1C(=O)N(Cc1ccccc1F)C1CCS(=O)(=O)C1` (configuration not stated)?
Vaccinia Venus: -11%; VACV mCherry inh: -6%

Results for OCCN1CCN(CCCN2c3ccccc3CCc3ccccc32)CC1 ?
Vaccinia Venus: -19%; VACV mCherry inh: inconclusive

How did CCCCC(c1nc2ccccc2[nH]1)n1c(-c2ccccc2)nc2cc(C)c(C)cc21 (configuration not stated) do in these assays?
Vaccinia Venus: 11%; VACV mCherry inh: 24%

How did CCC(=O)c1ccc(OCC(=O)OCc2csc(CC(=O)Nc3ccccc3C)n2)cc1 do in these assays?
Vaccinia Venus: -1%; VACV mCherry inh: inactive

What do the screens show for `O=C(Nc1ccc(N2CCOCC2)cc1)c1ccc(Br)o1`?
Vaccinia Venus: -10%; VACV mCherry inh: -32%

What do the screens show for `Cc1cn2c(=O)cc(COc3cc(C)c(Cl)c(C)c3)nc2s1`?
Vaccinia Venus: -12%; VACV mCherry inh: -10%

How did Cc1ccc(-c2cnc3n2CCCCC3)cc1 do in these assays?
Vaccinia Venus: -22%; VACV mCherry inh: -15%

How did CCN(CC)c1ccc(NC(=O)c2c(C)noc2C)cc1 do in these assays?
Vaccinia Venus: 4%; VACV mCherry inh: inconclusive

What do the screens show for `CC(O)Cc1nsc(NC(=O)c2cccs2)n1` (configuration not stated)?
Vaccinia Venus: -5%; VACV mCherry inh: inactive

What do the screens show for `Nc1ccc(NC(=O)c2ccc(C(=O)Nc3ccc(N)cc3)cc2)cc1`?
Vaccinia Venus: 5%; VACV mCherry inh: -1%

What do the screens show for `CCc1cc(C(=O)N2CCN(C(=O)c3ccco3)CC2)sc1C`?
Vaccinia Venus: -15%; VACV mCherry inh: -16%

From PubChem
